# HIV TAR-Tat: HIV-1 TAR-Tat binding disruption. HIV-1 TAR RNA, Tat peptide displacement FRET; stronger effect = higher value. z-score (no concentration beside the values). 100,000 compounds, 0.6% hits;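 also: score is relative to mean and SD of negative controls; some compounds called inactive have numbers as strong as hits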
# CDC25B-CDK2 inh: human CDC25B-CDK2/CyclinA binding inhibition | P30305+P24941 | HTRF CDC25B-CDK2/CyclinA binding, anti-His/anti-Flag; stronger effect = higher value | z-score (test concentration not listed) | 94,000 compounds, 0.72% hits | AID 1259370;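 also: score is relative to mean and SD of negative controls; strong numbers were not always called active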
# Starred values were filed as active, the others as inactive; x = no result given.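 The calls were made as follows: active = z-score from 3 up in half or more of its runs; inactive = the rest.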
(1) CCN1C(=O)C(Cc2nc3ccccc3c(=O)n2CCCO)c2cc(Br)ccc21 (stereo not drawn)
(2) CCC(C(=O)O)n1cnc2scc(-c3ccc(C)c(C)c3)c2c1=O (stereo not drawn)
(3) NNC(=S)NC1CCCCC1
(4) CCSc1ncc(Cl)c(C(=O)Nc2nnc(SCC)s2)n1
(5) Cc1cn2c(=O)cc(CSc3ccccc3NC(=O)C3CCCCC3)nc2s1
(6) CS(=O)(=O)Nc1nc2ccc(NC(=O)c3ccccn3)cc2s1
(7) CCN(CC)C(=O)Nc1ccc2snnc2c1
(8) CNC(=O)Nc1ccc2sc(NS(=O)(=O)c3ccccc3)nc2c1

assay / compound	1	2	3	4	5	6	7	8
HIV TAR-Tat	2.25	0.09	x	2.51	-0.58	1.75	1.15	0.79
CDC25B-CDK2 inh	-0.72	-0.23	-1.44	-1.85	x	x	9.12*	x

(9) CCC(Sc1nc2ncccc2[nH]1)C(=O)N1CCC(C)CC1 (stereo not drawn)
(10) O=C(Cc1cccs1)N1CCN=C1SCc1ccc(C(F)(F)F)cc1
(11) Cc1nnc(N2CCN(C(=O)Nc3ccccc3)CC2)c2nn(-c3ccc(Cl)cc3)c(C)c12
(12) CCC(O)c1nc2ccccc2n1CCCCOc1ccc(OC)cc1 (stereo not drawn)
(13) O=C(c1ccccc1)c1ccc2nc(Nc3ccc4c(c3)OCO4)c3nncn3c2c1
(14) CC1CCN(c2ccc3nnc(CCC(=O)N4CCCCC4)n3n2)CC1
(15) CCC(=O)Nc1ncc([N+](=O)[O-])s1
(16) COc1ccc(NC2c3cccc4cccc(c34)C2NS(=O)(=O)c2ccc(Cl)cc2)cc1 (stereo not drawn)

assay / compound	9	10	11	12	13	14	15	16
HIV TAR-Tat	0.09	x	1.4	-0.47	0.52	-0.11	3.19	-0.92
CDC25B-CDK2 inh	x	-0.76	x	-1.48	x	x	-3.37	-1.6

# The list goes on (four carried over from the part before).
(13) O=C(c1ccccc1)c1ccc2nc(Nc3ccc4c(c3)OCO4)c3nncn3c2c1
(14) CC1CCN(c2ccc3nnc(CCC(=O)N4CCCCC4)n3n2)CC1
(15) CCC(=O)Nc1ncc([N+](=O)[O-])s1
(16) COc1ccc(NC2c3cccc4cccc(c34)C2NS(=O)(=O)c2ccc(Cl)cc2)cc1 (stereo not drawn)
(17) CC(C)CCN1C(=O)c2cc3occc3n2CC1(C)C(=O)NC1CCC(C)CC1 (stereo not drawn)
(18) O=C(CCc1nnc2ccc(NCc3ccc4c(c3)OCO4)nn12)Nc1ccc(F)cc1F
(19) Cc1c(C(=O)Nc2ccc(F)cc2)sc2nc[nH]c(=O)c12
(20) Fc1ccccc1-c1noc(NCCN2CCc3ccccc3C2)n1
(21) CCN1CCN(c2nc(N3CCN(C)CC3)c3cnn(C)c3n2)CC1
(22) C=Cc1ccc(CN2C(=O)N(c3ccccc3)C3CS(=O)(=O)CC32)cc1 (stereo not drawn)
(23) CCOC(=O)c1c(C)[nH]c(C)c1S(=O)(=O)N1CCCC(C(=O)NC2CCC(C)CC2)C1 (stereo not drawn)
(24) COc1cc(NC(=O)CCc2nc3sc4c(c3c(=O)[nH]2)CCCCC4)cc(OC)c1

assay / compound	13	14	15	16	17	18	19	20	21	22	23	24
HIV TAR-Tat	0.52	-0.11	3.19	-0.92	2.18	1.55	1.57	0.8	1.75	1.48	1.64	1.46
CDC25B-CDK2 inh	x	x	-3.37	-1.6	x	x	x	x	x	-0.05	x	x

(25) Cc1ccc(-n2nnc(-c3nc(-c4ccccc4C)no3)c2C)cc1C
(26) CCCCCc1nn2c(=O)cc(O)nc2s1
(27) Cc1nc(-c2ccc(S(=O)(=O)Nc3ccc(Cl)cc3C)cc2)co1
(28) CCn1c(NCc2ccc(N(C)C)cc2)nc2ccccc21
(29) CCCC(=O)Nc1nnc(S(=O)(=O)N(CC)CC)s1
(30) O=C(CCCn1c(=O)c2cccn2c2cccnc21)N1CCN(c2ccccc2)CC1
(31) CCOc1ccc(-c2nc(C#N)c(NCCCOC)o2)cc1
(32) COc1ccc(C2CC(=O)C3=C(C2)NC(C)=C(C(=O)OCC(C)C)C3c2ccc3c(c2)OCO3)cc1 (stereo not drawn)

assay / compound	25	26	27	28	29	30	31	32
HIV TAR-Tat	-0.66	-2.32	0.82	0.49	1.7	0.5	0.73	0.6
CDC25B-CDK2 inh	x	-2.17	x	-1.24	-2.42	x	-1.26	-0.77

(33) CSc1cccc(NS(=O)(=O)c2ccc3c(c2)N(C(C)=O)CC(C)O3)c1 (stereo not drawn)
(34) O=C(Oc1ccnc2cc(Cl)ccc12)N1CCOCC1
(35) Cc1nc(-c2cccs2)c(CC(=O)NC2CCCCC2)s1
(36) CN1C(=O)Cc2cc(S(=O)(=O)NCc3ccc4c(c3)OCO4)ccc21
(37) Cc1cc2ccccc2n1-c1ccc(C(=O)N2CCC(C(=O)NC3CC3)CC2)s1
(38) C#CCN1C(=O)C(O)(CC(=O)c2ccc(OC)cc2)c2cc(Br)ccc21 (stereo not drawn)
(39) CC1CCCN(C(=O)c2nn(C)c3c2COc2ccccc2-3)C1 (stereo not drawn)
(40) Cc1nc2sc(C(c3cccc(Cl)c3)N3CCN(c4ccccc4F)CC3)c(O)n2n1 (stereo not drawn)

assay / compound	33	34	35	36	37	38	39	40
HIV TAR-Tat	-0.06	0.13	-1.44	1.61	0.81	x	1.12	x
CDC25B-CDK2 inh	x	0.53	-2.01	x	x	-0.24	-0.74	-0.31

(41) CCN(CC)c1nc2c(S(=O)(=O)c3ccc(C)cc3)nnn2c2ccsc12
(42) Cc1ccc(OCc2ccc(-c3nc(C#N)c(N4CCC(C)CC4)o3)o2)cc1
(43) C[N+]12CCC(CC1)C(OC(=O)C(O)(c1ccccc1)c1ccccc1)C2 (stereo not drawn)
(44) O=C(Nc1ccc(I)cc1Cl)C(=S)NCc1cccs1
(45) O=C(c1ccccc1)c1cc2ccc(O)cc2oc1=O
(46) C=Cc1ccc(CN2C(=O)N(c3ccc(C)cc3)S(=O)(=O)c3ccccc32)cc1
(47) COc1ccc(N2CCN(S(=O)(=O)c3cc(-c4noc(C)n4)cs3)CC2)cc1
(48) Cc1cccn2c(=O)c3cc(C#N)c(=O)n(-c4ccc(F)cc4)c3nc12

assay / compound	41	42	43	44	45	46	47	48
HIV TAR-Tat	0.44	0.65	3.83	x	x	1.46	2.32	1.22
CDC25B-CDK2 inh	x	-1.56	x	-1.87	-0.84	x	x	-1.9

# Rewritten with two lines to a compound: entries from further up.
# Every second line gives: HIV TAR-Tat | CDC25B-CDK2 inh
43. C[N+]12CCC(CC1)C(OC(=O)C(O)(c1ccccc1)c1ccccc1)C2 (stereo not drawn)
    3.83 | x
46. C=Cc1ccc(CN2C(=O)N(c3ccc(C)cc3)S(=O)(=O)c3ccccc32)cc1
    1.46 | x
45. O=C(c1ccccc1)c1cc2ccc(O)cc2oc1=O
    x | -0.84
44. O=C(Nc1ccc(I)cc1Cl)C(=S)NCc1cccs1
    x | -1.87

# Additional structures follow:
(49) COc1cc(OC)c(N(C)C(=O)Cc2c(C(=O)O)n(C)c3ccccc23)cc1Cl
(50) Cc1ccc(Nc2c(-c3ccc(O)cc3)nc3nc[nH]n23)cc1
(51) O=C(c1ccc([N+](=O)[O-])cc1)N1CCN(c2ncc(Br)cn2)CC1
(52) CN1C2=C(C(=O)CC(C)(C)C2)C(c2cccs2)C2=C1CC(C)(C)CC2=O
(53) CCSc1nc2c(sc3ccccc32)c(=O)n1CC1CCCO1 (stereo not drawn)
(54) Cc1cc(C)cc(NC(=O)c2noc3c2CC(C)CC3)c1 (stereo not drawn)
(55) COc1ccc(N(CC(=O)Nc2ccccc2OC)C2=NC3CS(=O)(=O)CC3S2)cc1 (stereo not drawn)
(56) Cn1c(=O)c2c(SCc3cccc(F)c3)nc(-c3ccc(F)cc3)nc2n(C)c1=O

assay / compound	49	50	51	52	53	54	55	56
HIV TAR-Tat	x	0.97	x	x	x	0.52	1.67	x
CDC25B-CDK2 inh	-0.9	-1.55	-1.86	16*	-0.63	x	-3.15	0.89

(57) Cc1nnc2sc(-c3cnccn3)nn12
(58) O=S(=O)(c1ccccc1)c1cnc2ccc(F)cc2c1N1CCCCC1
(59) CSC1=NC(C)(C)Cc2cc3c(cc21)OCCO3
(60) Fc1ccc(OCc2nn3c(C(F)(F)F)nnc3s2)cc1
(61) CC(C)CCNC(=O)c1cc2c(s1)CSC2
(62) CC(C)c1ccc(C2=CC(c3ccc(F)cc3)n3ncnc3N2)cc1 (stereo not drawn)
(63) COc1ccc(-c2csc3ncnc(N4CCC(N5CCCCC5)CC4)c23)cc1
(64) Cc1ccc(N2CC(C(=O)O)CC2=O)cc1C (stereo not drawn)

assay / compound	57	58	59	60	61	62	63	64
HIV TAR-Tat	-1.5	0.86	0.72	-1.28	x	-1.54	1.23	1.93
CDC25B-CDK2 inh	-1.4	-1.65	-1.57	-0.82	-1.62	x	x	x

(65) CC1=C(C(=O)Nc2ccc(F)cc2)C2(CCN(C(C)C)CC2)OC1=O
(66) Cc1c(-c2nc(-c3ccccc3)no2)nnn1-c1ccc(Cl)cc1
(67) CCN1CCN(CCCNC(=O)CCCn2nc(C)n3c(cc4occc43)c2=O)CC1
(68) Cc1cc(C2CCCN2S(=O)(=O)Cc2ccccc2)on1 (stereo not drawn)
(69) Cc1ccc(-n2nc(C)c3c(C)c(CCC(=O)NC(C)CCc4ccco4)c(C)nc32)cc1 (stereo not drawn)
(70) Cc1ccc2c(c1)nnc1nncn12
(71) Cc1cc(SCC(=O)N2CCOCC2)nc(C)n1
(72) CC1Cc2ccccc2N1S(=O)(=O)c1ccc2c(c1)CCCC(=O)N2 (stereo not drawn)

assay / compound	65	66	67	68	69	70	71	72
HIV TAR-Tat	0.18	1.3	0.76	1.93	x	x	2	-0.18
CDC25B-CDK2 inh	x	x	-0.98	x	-1.7	-0.16	-1.73	x

(73) CN1CCN(c2nc(N3CCOCC3)c3cnn(C)c3n2)CC1
(74) CCOc1ccc(C2C(C#N)=C3N=C(N)c4ccccc4N3C3=C2C(=O)CC(C)(C)C3)cc1 (stereo not drawn)
(75) COc1ccc2nc(NC(=O)c3nc(S(C)(=O)=O)ncc3Cl)sc2c1
(76) O=C(O)CCCCCC(=O)c1ccccc1
(77) Cc1oc2ncnc(N3CCOCC3)c2c1C(=O)N1CCN(c2ccccn2)CC1
(78) O=C(O)c1cc2cc(F)ccc2[nH]1
(79) Cc1cc(NC(=O)Nc2nc3c(s2)CCCC3)ccc1Br
(80) O=C1C(=O)C(c2ccccc2)C(=O)C1c1ccccc1 (stereo not drawn)

assay / compound	73	74	75	76	77	78	79	80
HIV TAR-Tat	1.2	-6.2	2.08	x	0.4	-0.85	1.02	0.62
CDC25B-CDK2 inh	x	-1.03	-1.3	-1.26	x	0.05	x	-1.54

(81) CN(NC(=O)c1ccc(Cl)cc1)c1ncc(Cl)cc1C(F)(F)F
(82) CCCN(C1=NC2CS(=O)(=O)CC2S1)c1ccc(OCC)cc1 (stereo not drawn)
(83) CC(=O)N1c2ccc(S(=O)(=O)N3CCCC(C(=O)NC4CCCCC4)C3)cc2CC1C (stereo not drawn)
(84) O=C(O)c1ccccc1-c1nc2ccccc2[nH]1
(85) O=c1c2sccc2nc(SCc2cc(=O)n3ccccc3n2)n1Cc1ccccc1Cl
(86) Brc1ccccc1-c1nnc2sc(-c3ccncc3)nn12
(87) N#Cc1ccc(Oc2ccc(Cl)cc2)nc1
(88) CCN(CC)C(=O)C1=CC(c2ccc3c(c2)OCO3)=NS(=O)(=O)N1C

assay / compound	81	82	83	84	85	86	87	88
HIV TAR-Tat	x	1.07	0.91	x	x	2.24	x	1.34
CDC25B-CDK2 inh	-0.14	-0.28	x	-0.43	-9.49	-0.08	-2.14	-3.42

(89) O=C(Nc1ccc2nonc2c1)N1CCOCC1
(90) COC(=O)Cc1nc(-c2cccs2)no1
(91) Cn1c(=O)c2c(-c3ccccc3)n(C(C)(C)C)cc2n(C)c1=O
(92) CCOCCCNC(=O)Nc1ccc2nc(NS(C)(=O)=O)sc2c1
(93) CCn1c(=O)oc2cc(NS(=O)(=O)c3cccc4nsnc34)ccc21
(94) Oc1cccc(-c2nc3cnccn3c2Nc2ccc(Cl)cc2)c1
(95) CCc1ccc(C2C(C#N)=C(N)Oc3n[nH]c(COC)c32)cc1 (stereo not drawn)
(96) COc1ccc(C2N=C(Nc3ccc(C(C)C)cc3)Nc3nc(C)cc(=O)n32)cc1OC (stereo not drawn)

assay / compound	89	90	91	92	93	94	95	96
HIV TAR-Tat	x	-0.33	3.5	0.21	-0.02	-0.7	1.33	-0.16
CDC25B-CDK2 inh	-1.51	-2.26	-1.22	x	x	-0.05	-1.72	1.99

(97) O=c1c2cccnc2[nH]c(=S)n1CC1CCCO1 (stereo not drawn)
(98) O=C(CSc1ncn[nH]1)Nc1nnc(-c2ccccc2)s1
(99) O=C(Nc1nn2c(-c3ccco3)nnc2s1)C1CCCCC1
(100) CS(=O)(=O)N(CC(=O)NCc1ccc(Cl)cc1)c1cccc(C(F)(F)F)c1
(101) O=S(=O)(c1ccccc1)c1cccc(S(=O)(=O)N2CCOCC2)c1
(102) CC1CCN(C(=O)c2oc3ccccc3c2NC(=O)C(C)C)CC1
(103) CN(Cc1ccco1)C(=O)Cn1cc(S(=O)(=O)N2CCCC2)c(S(=O)(=O)N2CCCC2)c1

assay / compound	97	98	99	100	101	102	103
HIV TAR-Tat	x	1.21	2.13	x	1.79	0.88	-0.47
CDC25B-CDK2 inh	-2.14	-1.12	-0.25	-1.62	-1.59	x	x

# Bioassay records from PubChem.
